B2AR ag – beta2AR agonists driving receptor internalization, primary screen, cell-based, FAP fluorogen, flow cytometry. Beta-2 adrenergic receptor (Homo sapiens), P07550. Am2.2-beta2AR cells; reference of the scale not given here. response, % (no concentration beside the values). 0.43% of 340,000 active. AID 504454, 2011;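 active = response above a set limit, near 3 SD of response in nonfluorescent compounds, cut at about 42% in these data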;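 also: stock transfer was 100 nL into about 11 µL; a reference agonist was the positive control; negative values mostly stem from fluorescent compounds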
Target sequence (P07550 whole entry, looked up): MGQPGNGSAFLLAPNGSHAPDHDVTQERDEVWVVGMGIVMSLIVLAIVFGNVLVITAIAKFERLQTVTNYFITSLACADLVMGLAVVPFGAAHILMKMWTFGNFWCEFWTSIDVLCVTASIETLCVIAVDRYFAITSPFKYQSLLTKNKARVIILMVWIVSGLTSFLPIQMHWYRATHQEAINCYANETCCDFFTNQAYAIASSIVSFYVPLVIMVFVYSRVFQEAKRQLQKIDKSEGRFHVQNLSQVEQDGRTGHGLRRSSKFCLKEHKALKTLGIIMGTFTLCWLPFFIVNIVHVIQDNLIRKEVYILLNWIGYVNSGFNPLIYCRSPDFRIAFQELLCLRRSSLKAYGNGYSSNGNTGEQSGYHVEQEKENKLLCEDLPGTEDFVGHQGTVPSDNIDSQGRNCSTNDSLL
Ecoli growth – E. coli growth inhibition, primary screen, OD600; Escherichia coli growth, 23 h; stronger effect = lower value; OD600 absorbance (test concentration not listed); 0.21% of 330,000 active; AID 1053175, 2014;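 active = OD600 absorbance below the run mean of sample wells minus 3.6 SD, in any replicate, cut at about 0.56 in these data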;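 also: stock transfer was 300 nL into about 60 µL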
LANA-H2B inh – blockers of LANA interaction with H2A/H2B – biochemical, FP readout, HTS, primary screen; Protein LANA1 (Human herpesvirus 8 type P (isolate GK18)), Q9QR71; cell-free LANA-H2A/H2B peptide, fluorescence polarization; inhibition, % (concentration not given with the values); 0.6% of 320,000 active; AID 2629, 2010; in the data active = inhibition mostly above about 10%, no sharp cut-off; inactive = mostly below about 6.7%;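 also: stock transfer was 7.5 nL into about 10 µL; 0% = median of vehicle wells and 100% = median of positive control wells; one replicate is shown; the record names a cut of 25% in any replicate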
HNF4A DNA FP – change in binding of human HNF4A to DNA, primary screen, biochemical, fluorescence polarization, FITC-DNA. Hepatocyte nuclear factor 4-alpha (Homo sapiens), P41235. 1 h. activity change, % at 10 µM. 0.3% of 360,000 active. AID 1224865, 2016; in the data active = activity change above about 30%, passing the limit was not always enough;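 also: controls were the assay level and a saturating level of protein; the project sought stronger binding though the title names inhibitors; some compounds called inactive have numbers as strong as hits; positive values seem to mean higher polarization but the record does not say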
ALR H2O2 inh – inhibitors of human ALR sulfhydryl oxidase, primary screen, biochemical, H2O2 detection, HRP-luminol luminescence, single point; FAD-linked sulfhydryl oxidase ALR (Homo sapiens), P55789; purified ALR, DTT oxidation; inhibition, % (concentration not given with the values); 3.8% of 290,000 active;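 active = mean and each replicate at 75% or more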;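 also: stock transfer was 7.5 nL into about 7.5 µL; 0% = neutral wells and 100% = wells with inactivated enzyme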
Target sequence (P55789 whole entry, looked up): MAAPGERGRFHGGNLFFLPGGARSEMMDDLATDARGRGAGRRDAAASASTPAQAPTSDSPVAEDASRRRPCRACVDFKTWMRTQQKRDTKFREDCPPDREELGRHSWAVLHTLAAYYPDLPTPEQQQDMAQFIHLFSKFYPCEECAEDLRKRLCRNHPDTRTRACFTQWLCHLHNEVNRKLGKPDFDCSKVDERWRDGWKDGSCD
UCH37 inh – inhibitors of human UCH37 deubiquitinase, primary screen, biochemical, Ub-AMC cleavage, fluorescence; AID 588478, 2011; purified proteasome/UCH37; inhibition, % (concentration not given with the values); 0.33% of 330,000 active; Ubiquitin carboxyl-terminal hydrolase isozyme L5 (Homo sapiens), Q9Y5K5;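 active = mean of two replicates above 20%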;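 also: 0% = compound-free wells with enzyme and 100% = wells lacking proteasome; stock transfer was 100 nL into about 20 µL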
Target sequence (Q9Y5K5 whole entry, looked up): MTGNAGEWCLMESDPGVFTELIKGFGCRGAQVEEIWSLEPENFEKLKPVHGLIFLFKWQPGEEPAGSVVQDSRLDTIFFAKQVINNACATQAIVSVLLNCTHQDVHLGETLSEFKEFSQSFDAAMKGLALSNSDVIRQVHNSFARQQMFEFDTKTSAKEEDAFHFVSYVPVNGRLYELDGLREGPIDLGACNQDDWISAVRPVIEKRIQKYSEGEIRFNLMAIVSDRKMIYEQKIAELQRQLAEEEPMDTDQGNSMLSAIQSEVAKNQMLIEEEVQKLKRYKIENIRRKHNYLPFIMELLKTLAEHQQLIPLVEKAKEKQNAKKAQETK
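Material: Human UCH37 enzyme supplied as purified proteasome complex | Schedule: 30 min compound-proteasome preincubation then 25 min substrate reaction, room temperature | Detection: AMC fluorescence from Ub-AMC cleavage, excitation 355 nm, emission 460 nm | Benchmarks: Wells without proteasome as full block, compound-free enzyme plus substrate as uninhibited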
FGF22 binding – binders of human FGF22 protein, primary screen, FGF22 synaptogenesis inhibitor project, biophysical, thermal shift, single point. recombinant FGF22 thermal shift, SYPRO orange fluorescence; percent of sucrose octasulfate shift, DMSO zero. 1.5% of 340,000 active. calls only at 9.99 µM. AID 651658, 2012. Fibroblast growth factor 22 (Homo sapiens), Q9HCT0;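 active = melting point raised past a set limit in the mean and every replicate; three in four hits are not shown here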
An asterisk follows results filed as active; i = inactive; · = not tested or not shown. Some of the compounds tested; count on the stated rates, not on these rows.

SMILES	B2AR ag	Ecoli growth	LANA-H2B inh	HNF4A DNA FP	ALR H2O2 inh	UCH37 inh	FGF22 binding
Cc1cc([N+](=O)[O-])ccc1NC(=O)CN1C2CCC1CC(NC(=O)NC13CC4CC(CC(C4)C1)C3)C2 (centres undefined)	2	0.68	4.1	2.0	-17	3.4	i
COc1ccc2c(c1OC)C(=O)OC2Nn1cncn1 (centres undefined)	-1	0.74	0.6	1.4	-10	-3.8	·
CCOC(=O)Oc1ccc2oc(=O)cc(C)c2c1	-3	0.69	2.3	1.7	1	3.6	·
O=C(O)CC/C(=C\c1ccc(Cl)c([N+](=O)[O-])c1)c1nc2ccccc2s1	8	0.71	·	-2.6	·	6.7	i
Cc1ccc(C2=NCCn3nc4cc([N+](=O)[O-])ccc4c32)cc1	-4	0.67	0.6	9.7	-11	-0.1	i
CCN1CCN(CC(=O)c2cc(OC)c(OC)c(OC)c2)CC1	-2	0.71	1.8	1.8	·	0.0	·
CCCNc1nc(OCC(F)(F)F)nc(OCC(F)(F)F)n1	-11	0.66	-4.5	-0.6	26	1.1	i
Nc1ccc2c(c1)C(=O)Cc1ccccc1S2	-4	0.67	1.5	1.7	-17	-16	i
CCOc1nc(NCCO)nc(NCCC2=CCCCC2)n1	-6	0.71	3.2	3.4	-2	3.8	·
O=C(O)COn1c(-c2ccc(Cl)cc2)nc2ccc(Cl)cc21	0	0.65	1.1	-0.5	26	1.3	i
CCOC(=O)c1c(C)[nH]c(C(=O)OCC(=O)N(C)CC(=O)Nc2ccccc2Cl)c1C	-12	·	0.2	1.8	-6	·	·
O=C(CCCc1ccccc1)NCc1cn2ccsc2n1	-16	0.73	8.0	2.3	-3	1.9	i
Cc1ccc(C(=O)N2CCCCC2)cc1S(=O)(=O)N1CCOCC1	-3	0.69	0.1	0.1	-2	2.3	i
O=C(c1cccc(C(F)(F)F)c1)C1CCCN(Cc2cccn2-c2ccccn2)C1 (centres undefined)	-2	0.69	1.9	-0.7	12	2.1	i
COc1cccc(-c2nnc(NC(=O)c3ccc(Cl)s3)o2)c1	17	0.47*	-0.5	-1.0	3	-69	i
O=C(Nc1ccc(Cl)cn1)C1COc2ccccc2O1 (centres undefined)	-5	0.64	-0.9	-2.0	·	0.4	i
O=C(COC(=O)c1cc(Br)ccc1O)NCC1CCCO1 (centres undefined)	2	0.65	0.3	-0.2	0	-3.3	i
Cc1ccc(NC(=O)c2ccc3c(SCC(=O)O)c4c(nc3c2)CCCC4)c(Br)c1	-8	0.68	-3.2	11	90*	5.2	i
CSc1cccc(NC(N)=O)c1	-1	0.71	6.5	0.5	10	3.3	i
O=C(Cc1n[nH]c(=O)c2ccccc12)Nc1cccc(S(=O)(=O)N2CCCCCC2)c1	-3	0.59	-2.5	0.1	-2	0.2	i
CCNc1nc(NCC)nc(SCCOC(=O)Nc2ccccc2)n1	-12	0.76	0.7	0.0	2	3.6	·
CC(C)(C)c1ccc(C(=O)NNC(=O)CCC(=O)Nc2ccccc2)cc1	-9	0.69	-4.0	4.2	-5	4.0	i
COc1ccc(/C=C\C(=O)O[C@@H]2C(O)C(O[C@@H]3OC(C)[C@H](O[C@@H]4OCC(O[C@H]5O[C@H](CO)[C@@H](O)C(O)C5O)C(O)C4O)C(O)C3O)[C@H](OC(=O)[C@]34CCC(C)(C)C[C@@H]3C3=CCC5[C@@]6(C)CC(O)C(O[C@@H]7OC(CO)C(O)[C@H](O)[C@H]7O)[C@@](C)(C(=O)O)C6CC[C@@]5(C)[C@]3(CO)CC4)O[C@H]2C)cc1 (some centres undefined)	-2	·	-0.8	-0.8	-5	0.3	·
O=C(c1cc(-c2ccccc2Cl)on1)N1CCN(C(=O)c2ccco2)CC1	7	0.74	-0.2	1.2	-11	1.4	·
CC(=O)Nc1cc(C(=O)OCc2cccc([N+](=O)[O-])c2)ccc1C	1	0.71	-1.4	-2.4	-3	12	i
CCN(CC)C(=O)OCCc1cc2ccccc2c(=O)o1	-2	0.72	-2.8	-2.9	0	0.9	i
O=C(NCC(=O)N1CCN(S(=O)(=O)c2ccccc2)CC1)c1ccc2ccccc2c1	-2	·	4.3	-1.5	-9	·	·
O=C(Nc1ccc(Cc2ccncc2)cc1)c1ccc(S(=O)(=O)N2CCOCC2)cc1	6	0.67	2.9	0.9	-5	1.0	·
CCC(C)NC(=O)c1ccccc1NC(=O)c1ccc(CSc2ccc(C)cc2)cc1 (centres undefined)	-11	0.75	2.3	-0.6	99*	2.1	i
CCOc1ccc(S(=O)(=O)N2CCCCC2)cc1NC(=O)CN1C(=O)NC(C)(c2ccc(C)cc2)C1=O (centres undefined)	5	0.69	-4.1	1.8	-2	2.8	·
Cc1c(O)c(C)c2c(c1O)C(=O)C[C@@H](c1ccccc1)O2	-3	·	0.1	-3.2	2	5.8	i
COc1ccc(-c2ocnc2C(=O)Nc2ccc3c(c2)CCC3)cc1	4	0.71	4.3	1.9	-7	1.3	i
CN(CC(=O)NC1CCCCCC1)S(=O)(=O)c1ccc(Br)cc1	-15	0.7	0.1	0.4	11	2.3	i
Cc1nc(C(=O)N(C)C)nn1-c1cc(Cl)ccc1Cl	-7	0.66	-4.1	0.5	12	1.0	·
CCC(C)NC(=O)CSc1nnc(-c2c[nH]c3ccccc23)o1 (centres undefined)	-3	0.67	-0.7	2.4	-4	3.5	i
Cc1ccc(S(=O)(=O)N(CC(=O)Nc2cccnc2)c2cccc([N+](=O)[O-])c2)cc1	-15	0.68	-5.3	-0.2	5	2.2	i
CCOC(=O)N1CCN(C(=O)C(=O)Nc2sc3c(c2C(N)=O)CC(C)(C)OC3)CC1	-7	0.68	-1.3	1.3	-3	3.8	i
COCCNC(=O)C(C)N(c1ccc(OC)cc1)S(C)(=O)=O (centres undefined)	5	0.73	2.0	3.4	-5	0.8	·
O=C(Nc1cccc(S(=O)(=O)N2CCOCC2)c1)C1CCN(S(=O)(=O)c2ccccc2)CC1	11	0.65	6.0	0.5	-2	3.3	i
Cc1nn(-c2ccccc2)c(Cl)c1/C=C1\SC(=S)N(CCCCCC(=O)O)C1=O	11	0.66	-0.5	-2.0	55	13	i
COc1ccc(C/C(C)=N/NC(=S)Nc2ccccc2)cc1	-1	·	6.8	-1.0	82*	·	i
O=C1C2C(C(=O)N1c1ccc3c(c1)OCO3)C1C=CC2C12CC2 (centres undefined)	3	0.67	11	-4.0	0	0.6	i
COc1ccc(Cl)cc1NC(=O)COC(C)=O	-3	0.71	-1.2	0.8	-5	4.2	i
CC(CCc1ccccc1)NC(=O)c1cccnc1 (centres undefined)	7	0.73	-0.8	0.5	-7	3.7	·
CCCn1c(SCC(=O)Nc2nnc(C)s2)nnc1C1CC1	4	0.74	7.8	1.6	-5	3.0	i
Cn1cccc1CNC(=S)Nc1ccccc1Cl	-6	0.69	-3.7	-4.2	·	4.4	·
Cc1cccc(C)c1NC(=O)CN(C)C(=O)c1cc(S(=O)(=O)N2CCOCC2)ccc1N1CCCC1	1	0.67	7.6	-3.8	3	0.0	i
COc1cc2cc(C(=O)O)[nH]c2c(OC)c1OC	-4	0.69	-7.0	1.1	-10	-18	i
COc1ccc(C2CC(c3cccs3)=NN2C(=O)c2ccco2)cc1OC (centres undefined)	-12	0.7	-7.0	1.2	-9	3.2	·
Fc1ccc(/C=N/NC(=S)Nc2cccnc2)cc1	-6	·	4.6	-3.2	·	·	i
COc1cccc(OC)c1C(=O)Nc1c(C(=O)N2CCN(C)CC2)oc2ccccc12	0	0.7	3.1	-3.1	-4	3.8	i
CCCCn1c(N)c(N(CC(C)C)C(=O)COC(=O)Cc2c(C)nc3ccccc3c2C)c(=O)[nH]c1=O	2	0.69	8.6	0.2	-2	6.2	i
Cc1cccc(C)c1OCC(=O)NCc1nnc(SCC(=O)NC2CCCCC2)n1C	-8	0.67	-1.7	2.1	-10	3.5	·
Cc1ccc(CSc2ncnc3c2cnn3-c2ccc(C)cc2)cc1	8	0.69	1.0	2.2	4	-3.0	·
COc1cc(CC(=O)OCC(=O)Nc2ncc(Cl)cc2Cl)cc(OC)c1OC	6	0.72	3.2	0.1	-2	6.2	·
O=C(Cc1ccccc1)Nc1ccc(NC(=O)c2ccccc2)c(Cl)c1	-6	0.7	-0.8	-0.2	5	3.6	i
CCCCOc1ccc(C(=O)Nc2ccc(SC(F)F)cc2)cc1OC	-1	0.7	-0.8	0.2	-19	0.7	i
COCCNC(=O)[C@@]1(Cc2ccccc2)C=C[C@@H](C)N1C(C)=O	-5	·	1.0	0.6	-7	4.1	i
O=C(c1ccc2c(c1)OCCO2)C1CCN(S(=O)(=O)c2ccc(F)cc2)CC1	3	0.76	0.8	-3.8	-4	1.7	·
CC(Sc1ncnc2sc(-c3ccccc3)cc12)C(=O)NCC1CCCO1 (centres undefined)	2	0.7	-1.1	-2.9	-4	0.2	i

(continued)
SMILES	B2AR ag	Ecoli growth	LANA-H2B inh	HNF4A DNA FP	ALR H2O2 inh	UCH37 inh	FGF22 binding
CC1CCN(S(=O)(=O)c2ccc3c(c2)N(CC(=O)N(C)Cc2ccco2)C(=O)CO3)CC1	0	0.71	-8.7	-2.0	-2	3.0	i
COc1ccccc1OCCn1cc(C(=O)c2ccco2)c2ccccc21	-4	0.72	0.3	3.9	22	-3.5	·
Cc1ccc(C2=NN(S(C)(=O)=O)C(c3ccc4nccnc4c3)C2)cc1 (centres undefined)	7	0.7	-1.4	5.6	1	1.6	i
CCOC(=O)C1CN(S(=O)(=O)c2ccc(OC)cc2)c2cc(S(=O)(=O)CC)ccc2O1 (centres undefined)	-30	0.69	-1.1	9.1	·	3.0	·
CNC(=S)N/N=C/c1ccc(C(C)C)cc1	-3	·	2.3	3.7	21	·	·

Screening data from PubChem BioAssay.
